# SARS PLP yeast = qHTS of Yeast-based Assay for SARS-CoV PLP | Potency, µM (titrated, usually from 32.9 µM), without a hit: top-dose activity, positive = growth rescue | S. cerevisiae expressing SARS-CoV PLpro, growth rescue; control for the full effect not named in the record | hit rate 0.19% among 330,000 | AID 485353, 2010; also: 0% is about no effect; nearly all actives have a fitted effect of over 55% in size; growth read by luminescence after 48 h
# Cruzain inh noDet = qHTS Assay for Promiscuous and Specific Inhibitors of Cruzain (without detergent); purified cruzain, Z-FR-AMC fluorescence, no detergent; Potency, µM, inactives show max response, negative = inhibition, hits mostly inhibitors; hit rate 2.3% among 200,000; AID 1476, 2009; active = well fitted curve in the direction sought with a large enough effect; inconclusive = small, poorly fitted or top-dose-only effect, or another doubt; inactive = no such curve, though single readings can be large; an effect the other way counts as inactive or inconclusive;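 also: plate controls were enzyme without inhibitor for no effect and buffer without enzyme for full effect; nearly all actives have a fitted effect of over 40% in size; top concentration of the series not given in the record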
# Target sequence (P25779 123-467 limits assumed): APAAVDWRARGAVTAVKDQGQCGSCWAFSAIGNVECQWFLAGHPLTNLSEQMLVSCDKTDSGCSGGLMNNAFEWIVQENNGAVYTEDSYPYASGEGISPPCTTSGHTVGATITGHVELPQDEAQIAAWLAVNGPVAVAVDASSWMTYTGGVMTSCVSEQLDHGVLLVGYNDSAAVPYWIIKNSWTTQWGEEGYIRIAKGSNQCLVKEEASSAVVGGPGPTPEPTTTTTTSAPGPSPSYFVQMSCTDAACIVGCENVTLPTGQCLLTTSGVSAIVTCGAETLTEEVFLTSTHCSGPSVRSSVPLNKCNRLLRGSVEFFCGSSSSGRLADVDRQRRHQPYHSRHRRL
#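 Detergent-free condition (0.00005% Triton X-100) in acetate buffer pH 5.5 with DTT. 1.5 nM enzyme and compound were pre-mixed 15 min, then 2 uM Z-FR-AMC substrate added; reaction progress from fluorescence change between first and third reads (60 s).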
# Marburg entry inh = qHTS for inhibitors of binding or entry into cells for Marburg Virus; Marburg virus pseudotyped entry inhibition, cell reporter; control for the full effect not named in the record; about a third of the inactives were read at about 46 µM; Potency, µM (top dose mostly 37.8 µM), without a hit: at the highest dose activity change, negative = inhibition, most hits filed as inhibitors; hit rate 1.8% among 300,000; active = well fitted inhibition curve with a large enough effect; inconclusive = small, poorly fitted or top-dose-only effect, or effect the other way; inactive = flat fitted curve, though single readings scatter; tested in HEK293 cells; about a fifth of its hits are not listed in these tables; also: % is scaled to controls: 0 for no effect and ±100 for the full control effect; luciferase read-out
# NS1 function inh = qHTS Assay for Inhibitors of Influenza NS1 Protein Function; S. cerevisiae slowed by influenza A NS1, growth recovery by OD600; Potency, µM (highest dose often 46.1 µM), inactives show at the top dose activity, positive = more growth; hit rate 0.4% among 270,000; AID 2326, 2010; also: actives are rising curves; nearly all actives have a fitted effect of over 50% in size
#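 Compounds were scored for reversing the slow growth caused by influenza A NS1 in S. cerevisiae, measured by optical density at 600 nm. Assay medium contained 2% galactose at pH 6.0; NS1-free yeast of the same strain were the positive control.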
# RE007 growth inh = qHTS Assay for Inhibitors of the HIV-1 protein Vpr | S. pombe RE007 Vpr strain, BacTiter-Glo ATP luminescence, 24 h; control for the full effect not named in the record | Potency, µM (doses to about 92.2 µM), for the others: at the highest dose activity change, negative = less growth | hit rate 0.21% among 360,000; active = well fitted falling curve with a large enough effect; inconclusive = small, poorly fitted or top-dose-only effect; inactive = no such curve, though single readings can be large or run the other way;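 also: % is scaled to controls: 0 for no effect and ±100 for the full control effect; nearly all actives have a fitted effect of over 50% in size; the assay follows cell death caused by Vpr and the record does not say whether a fall means rescue or toxicity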
#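 Fission yeast strain RE007, carrying one chromosomally integrated HIV-1 vpr copy, was seeded at OD 0.01 in PMG+AL medium with 23 nL pinned compound. After 24 h at 30 °C and 99% humidity, viability was read by BacTiter-Glo luminescence.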
# 2A StopGo = High Throughput Screening for Foot and Mouth Disease Virus Antivirals; human cells with a luciferase reporter of 2A StopGo recoding; control for the full effect not named in the record; Potency, µM (doses to about 57.9 µM), for the others: at the top dose signal change, negative = less light; hit rate 1.2% among 410,000; active = well fitted falling curve with a large enough effect; inconclusive = small, poorly fitted or top-dose-only effect; inactive = no such curve, though single readings can be large or run the other way; tested in HEK293T cells; also: % is scaled to controls: 0 for no effect and ±100 for the full control effect; nearly all actives have a fitted effect of over 45% in size; luciferase light after 4 h
# Lassa entry inh = qHTS for Inhibitors of binding or entry into cells for Lassa Virus | Lassa virus pseudotype entry inhibition, cell reporter; control for the full effect not named in the record | Potency, µM (top dose mostly 37.9 µM), for inactives: at the top dose activity change, negative = inhibition, most hits filed as inhibitors | hit rate 1.2% among 300,000; active means well fitted inhibition curve with a large enough effect; inconclusive means small, poorly fitted or top-dose-only effect, or effect the other way; inactive means flat fitted curve, though single readings scatter; tested in HEK293 cells; also: % is scaled to controls: 0 for no effect and ±100 for the full control effect; nearly all actives have a fitted effect of over 50% in size; luciferase read-out
# Cruzain Triton = qHTS Assay for Promiscuous and Specific Inhibitors of Cruzain (with detergent); purified cruzain, Z-FR-AMC fluorescence, 0.01% Triton; hit rate 0.43% among 200,000; Potency, µM, without a hit: max response, negative = inhibition, most hits filed as inhibitors; Cruzipain (Trypanosoma cruzi), P25779; active = well fitted curve in the direction sought with a large enough effect; inconclusive = small, poorly fitted or top-dose-only effect, or another doubt; inactive = no such curve, though single readings can be large; an effect the other way counts as inactive or inconclusive;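 also: plate controls were neutral wells for no effect and buffer without enzyme for full effect; nearly all actives have a fitted effect of over 40% in size; top concentration of the series not given in the record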
#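 15 min RT preincubation of 1.5 nM cruzain with compound, then 2 uM Z-FR-AMC added; kinetic AMC fluorescence, 60 s delta. Triton X-100 0.01%, pH 5.5.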
# Numbers without * were called inactive; ? = inconclusive; / = no result given; ! = not confirmed by another sample; [ ] = dose if it differs, or a comment. Unless noted, calls follow the shape of the dose curve; as a rule, active means well fitted rising curve with a large enough effect; inconclusive means small, poorly fitted or top-dose-only effect; inactive means no such curve, though single readings can be large or run the other way. Potency is read from the fitted curve at half-maximal effect.
SMILES,SARS PLP yeast,Cruzain inh noDet,Marburg entry inh,NS1 function inh,RE007 growth inh,2A StopGo,Lassa entry inh,Cruzain Triton
Cc1ccc2[nH]c3c(c2c1)CCNC3=O,1%,/,17%[46.1 µM],-7%,6%,43%[activator],2%,/
CCOc1ccc(CCNC(=O)c2ccc(-c3nc(CSc4ccccc4)c(C)o3)cc2)cc1,/,-4%,/,/,/,0%,6%[46.1 µM],-1.4%
CCc1cccc(NC(=O)C2CCCN(S(=O)(=O)c3cnc[nH]3)C2)c1 (centres undefined),-9%,/,/,-4%,-6%,-12%,/,/
COc1ccccc1CNC(=O)N1CCN(S(=O)(=O)c2ccccc2)CC1,0%,/,-5%,2%,-24%,11%,0%,/
CCc1ccc(OCC(=O)N/N=C/c2cc([N+](=O)[O-])ccc2N2CCCCCC2)cc1,15%,?,13%,-4%,-4%,-10%,?,-3.7%
CC(C)c1ccc([N+](=O)[O-])cc1S(=O)(=O)N1CCN(C)CC1,2%,/,/,3%,4%,-10%,/,/
Cc1ccccc1-c1nc(CS(=O)(=O)CC(=O)NCc2ccc3c(c2)OCO3)c(C)o1,4%,-10%,?,-98%,-5%,-15%,1%,-3.7%
Cc1ccc(NC(=O)CSCC(=O)O)cc1,-1%,/,/,3%,-12%,10%,/,/
COc1ccc(C(C[N+](=O)[O-])c2c(-c3ccccc3)cc3ccccn23)cc1 (centres undefined),13%,?,-10%,26%,?,21%,-29%,-5.3%
CCc1cc2c(=O)n(CC(C)C)cnc2s1,2%,1%,-3%,4%,-2%,15%,5%,-1.6%
CCN1C(=O)CC(n2c(C)nc3ccccc32)C1=O (centres undefined),10%,-5%,8%[46.1 µM],-11%,7%,-2%,1%,1.2%
CN(Cc1ccco1)C(=O)Cn1cc(S(=O)(=O)N2CCCC2)c(S(=O)(=O)N2CCCC2)c1,-2%,/,-15%[46.1 µM],10%,8%,2%,-1%[46.1 µM],/

# Quoted at random: two entries already listed, in no set order.
SMILES,SARS PLP yeast,Cruzain inh noDet,Marburg entry inh,NS1 function inh,RE007 growth inh,2A StopGo,Lassa entry inh,Cruzain Triton
Cc1ccccc1-c1nc(CS(=O)(=O)CC(=O)NCc2ccc3c(c2)OCO3)c(C)o1,4%,-10%,?,-98%,-5%,-15%,1%,-3.7%
Cc1ccc2[nH]c3c(c2c1)CCNC3=O,1%,/,17%[46.1 µM],-7%,6%,43%[activator],2%,/

# More structures
SMILES,SARS PLP yeast,Cruzain inh noDet,Marburg entry inh,NS1 function inh,RE007 growth inh,2A StopGo,Lassa entry inh,Cruzain Triton
Cc1ncc(CO)c(/C=N/NC(=S)Nc2cccc(Cl)c2)c1O,11%,/,/,1%,1%,-10%,/,/
O=C1CCC([N+](=O)[O-])C(c2cccc([N+](=O)[O-])c2)N1 (centres undefined),4%,/,-4%[46.1 µM],/,-7%,-1%,-1%,/
CCN(CC(O)CON=C1c2ccccc2-c2ccccc21)S(=O)(=O)c1ccc(Cl)cc1 (centres undefined),-11%,16%,?,17%,-4%,-28%,1%,2.0%
COc1ccc(CNC(=O)C2CCN(S(=O)(=O)N3CCCC3)CC2)c(OC)c1,-12%,/,/,?,4%,-25%,/,/
COc1ccc(CC(=O)N/N=C(\C)CC(=O)Nc2ccc3c(c2)OCCO3)cc1OC,0%,/,8%[46.1 µM],26%,-6%,7%,-3%,/
COc1cc(NC(=O)CSc2nc(C3CC3)nc3ccccc23)cc(OC)c1,0%,/,?,-10%,14%,-23%,2%[46.1 µM],/
Cc1cc2sc3ccccc3c(=O)c2c(C)c1O,-3%,/,?,-8%,-12%,75%[activator],3%,/
O=C(CSc1nnc2scc(-c3ccccc3)n12)Nc1nsc(-c2ccccc2)n1,-1%,-2%,21µM*!,7%,17%,32µM*,-30%,-24%
CN=C1NC(C)(C)C2CCC(C)(CC2)S1,/,/,?,/,-2%,-21%,-25%[46.1 µM],/
O=C1CC(c2cccc(Cl)c2Cl)c2cc3c(cc2N1)OCCO3 (centres undefined),/,6%,?,/,/,?,-6%[46.1 µM],-4.6%
O=C(Nc1nsc(-c2ccccc2)n1)c1cccs1,-31%,-9%,?,-32%,?,-44%,?,-2.2%
C[C@@H]1CC=C[C@H]2[C@H]1C(=O)N(Cc1ccccc1)[C@H]2c1ccc(C(F)(F)F)cc1,-16%,/,/,-78%,-6%,?,/,/
Cc1nnc(N/N=C/c2ccc(Br)cc2)n1N,-16%,/,/,-96%,2%,8%,/,/
CCOc1cccc2sc(N(Cc3cccnc3)C(=O)c3ccco3)nc12,/,-7%,/,/,/,-9%,-17%[46.1 µM],-17%
CCNC(=O)NCc1c(C)c(C)n(Cc2ccccc2)c1-n1cccc1,8%,/,?,/,16%,-29%,1%[46.1 µM],/
CCOC(=O)c1cnc2c(C)cc(Cl)cc2c1NCCCN1CCOCC1,0%,/,?,8%,-1%,-7%,-19%[46.1 µM],/
CCOc1ccc(N(CC(=O)NCc2ccc(OC)cc2)S(C)(=O)=O)cc1,1%,/,/,-56%,5%,62%[activator],/,/
Nc1n[nH]c(C(F)(F)F)c1-c1ccccc1,1%,/,14%[46.1 µM],/,-11%,-9%,13%[46.1 µM],/
COc1ccccc1N1CCN(C(c2ccc(F)cc2)c2nnnn2C(C)C)CC1 (centres undefined),-7%,22%,?,-15%,3%,-4%,-14%,5.0%
COc1ccc(NC(=O)/C(C#N)=C/c2ccc(-c3ccccc3C(=O)O)o2)cc1,-7%,/,20%[46.1 µM],?,12%,-3%,1%[46.1 µM],/
CCOc1ccc(S(=O)(=O)N2CCN(C(=O)c3sccc3C)CC2)cc1,-3%,16%,-12%,3%,-11%,-1%,-3%,0.2%
COc1cccc(CNC(=O)C2CCN(S(=O)(=O)c3ccc4c(c3)CC(C)N4C(C)=O)CC2)c1 (centres undefined),5%,/,/,-2%,-13%,-5%,/,/
COc1ccc(-c2noc(-c3cccnc3)n2)cc1OC,-2%,/,?,-32%,-5%,46%[activator],18%,/
CC(C#N)(NC(=O)CN1CCN(S(=O)(=O)c2cc(C(F)(F)F)ccc2Cl)CC1)C1CC1 (centres undefined),7%,/,-15%,/,1%,-15%,-14%,/
CCCCN1C(=O)C(CC(=O)NCC)SC1=Nc1ccccc1 (centres undefined),?,6%,17%,-4%,-9%,8%,6%,0.1%
COc1ccccc1CCNC(=O)Cc1ccc(NC(=O)N2CCSc3ncccc32)cc1,/,0%,/,/,/,-13%,18%[46.1 µM],-15%
CC(=O)Nc1ccc(S(=O)(=O)N(Cc2ccco2)Cc2cc3ccccc3[nH]c2=O)cc1,0%,/,?,-1%,10%,-18%,?,/
COC(=O)c1ccc(C(=O)OC)c(NC(=S)N2CCN(c3ccccc3)CC2)c1,-12%,9%,-5%,17%,-8%,/,3%,-2.3%
CCOc1ccc(C(=O)Nc2c3c(nn2-c2ccccc2)CS(=O)(=O)C3)cc1,3%,/,-5%,5%,2%,-13%,-7%,/
O=C(CN1CCN(c2ccccn2)CC1)NC1CCCC1,0%,-1%,6%,-3%,2%,-26%,6%,1.7%
C=C(C)n1c(=O)n(Cc2ccccc2C)c2ccccc21,?,/,/,-15%,-7%,-13%,/,/
CN(C)C(=O)Cn1c(SCC(=O)NCc2ccc3c(c2)OCO3)nc2ccccc21,-12%,-6%,4%,5%,-19%,-4%,17%,0.2%
CC1=NN(c2ccc(C)cc2C)C(=O)C1C(c1ccccc1)C1C(=O)N(c2ccc(C)cc2C)N=C1C (centres undefined),-10%,8%,-2%,8%,16%,-16%,10%,-1.6%
NC(=O)Cc1nc(-c2ccc(F)cc2)cs1,-1%,/,/,1%,-4%,3%,/,/
CCc1ccccc1NC(=O)C(=O)c1cc(C)n(-c2ccccc2F)c1C,/,-3%,13%[46.1 µM],/,/,15%,?,-3.3%
CCN(C(=O)c1cc2c(Cl)nc3ccc(C)cc3c2s1)c1cc(OC)ccc1OC,/,0%,4%[46.1 µM],/,/,?,?,-3.4%
N#Cc1nc(-c2ccco2)oc1N1CCN(Cc2ccccc2)CC1,10%,-9%,?,-51%,11%,-14%,13%,0.0%
COc1cccc(NC(=O)CSc2nc(=O)n(Cc3ccccn3)c3c2CCC3)c1,/,13%,/,/,/,35%[activator],-1%[46.1 µM],-3.3%
CC1(C(=O)O)COC(c2ccc(Cl)cc2)OC1 (centres undefined),-4%,/,6%[46.1 µM],6%,7%,-11%,-5%,/
Cc1ccc(C)c(S(=O)(=O)N2CCCCC2CCNC(=O)C(=O)NCc2ccncc2)c1 (centres undefined),-3%,/,?,/,-6%,?,-17%,/
Cc1ccc(Cn2c(C)c(CNCc3ccc(OC(C)C)cc3)c(C(=O)O)c2C)cc1,/,-3%,?,/,/,?,-11%[46.1 µM],4.1%
O=C(NCCS(=O)(=O)NC1CCCCC1)c1ccc2c(c1)OCO2,1%,/,-9%[46.1 µM],/,-8%,11%,2%,/
O=C1CCCCC(=O)N(c2ccccc2)c2ccccc21,-5%,6%,-3%,-3%,9%,-20%,0%,3.9%
COc1ccc(C2=NNC(=Nc3cc(S(=O)(=O)N(C)C)ccc3C)SC2)c(OC)c1,4%,/,/,3%,12%,?,/,/
Cc1ccc(NC(=O)c2ccccc2N(C)S(=O)(=O)c2ccccc2)c(C)c1,-15%,-5%,-2%,-17%,36%,8%,-9%,-2.2%
Cc1cccc(N2CC(C(=O)Nc3nnc(SCC(=O)NCC4CCCO4)s3)CC2=O)c1 (centres undefined),23%,/,-10%,9%,-8%,-18%,9%,/
Nc1c(C2=NCCO2)nnn1Cc1ccccc1,4%,10%,0%,-10%,3%,83%[activator],-1%,8.0%
O=C(NCc1ccco1)C1CC2CCC1C2 (centres undefined),8%,2%,?,12%,12%,/,15%,3.2%
O=C(C[n+]1cc(-c2ccccc2)n2c1CCCCC2)c1ccc(Cl)cc1,-22%,12%,-11%[46.1 µM],3%,-6%,-8%,-28%[46.1 µM],-0.9%

# Screening results deposited in PubChem by National Center for Advancing Translational Sciences (NCATS).
